# KCNQ2 pot = enhances the rat KCNQ2 potassium channel; 310,000 compounds, 0.54% hits; CHO-K1 KCNQ2, FluxOR thallium flux fluorescence; hits give high values; B-score at 10 µM; AID 2239;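 active = fluorescence ratio B-score at least 3 SD of library B-scores, with initial fluorescence B-score within 3 SD, cut at about 5.3 in these data; same plate scores as AID 2156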;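 also: B-score of peak minus minimum over baseline fluorescence ratio after K+ and Tl+ stimulus; positive B-score means potentiation of KCNQ2 with more thallium influx and brighter signal; only the inactives scoring about 0 or higher are listed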
# Target sequence (O88943 whole entry, looked up): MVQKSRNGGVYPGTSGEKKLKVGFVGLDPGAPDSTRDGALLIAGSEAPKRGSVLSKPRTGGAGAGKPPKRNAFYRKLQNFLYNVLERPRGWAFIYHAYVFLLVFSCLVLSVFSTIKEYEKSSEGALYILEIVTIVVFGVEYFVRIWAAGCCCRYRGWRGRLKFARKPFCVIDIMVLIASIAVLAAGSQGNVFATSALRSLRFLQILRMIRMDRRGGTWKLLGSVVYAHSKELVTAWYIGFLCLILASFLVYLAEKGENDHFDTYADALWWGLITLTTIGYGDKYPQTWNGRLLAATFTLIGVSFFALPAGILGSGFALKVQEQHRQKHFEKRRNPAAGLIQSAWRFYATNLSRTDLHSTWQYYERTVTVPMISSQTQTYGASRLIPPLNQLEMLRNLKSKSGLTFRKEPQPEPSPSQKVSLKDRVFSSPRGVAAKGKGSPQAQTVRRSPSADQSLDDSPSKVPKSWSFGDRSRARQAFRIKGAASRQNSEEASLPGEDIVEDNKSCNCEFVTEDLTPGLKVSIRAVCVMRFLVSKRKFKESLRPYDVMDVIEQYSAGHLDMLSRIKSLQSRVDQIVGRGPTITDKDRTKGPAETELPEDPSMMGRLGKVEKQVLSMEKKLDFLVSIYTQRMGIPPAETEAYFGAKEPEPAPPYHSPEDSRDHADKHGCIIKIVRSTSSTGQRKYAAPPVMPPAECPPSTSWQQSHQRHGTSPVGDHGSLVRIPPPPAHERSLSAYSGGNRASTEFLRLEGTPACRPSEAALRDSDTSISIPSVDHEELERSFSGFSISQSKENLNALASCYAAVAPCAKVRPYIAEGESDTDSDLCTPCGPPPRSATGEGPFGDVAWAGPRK
# KCNQ2 pot baseline = recorded beside KCNQ2 pot, whose call it bears; B-score; compound at 10 µM; measured here: initial fluorescence intensity artifact check;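 brightness before thallium and not channel activity; 0 = typical well and far values either way flag optical interference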
# * marks the source's active call; other numbers are inactive results; . = no result given. This is a subset. The share of hits here may be higher or lower than overall.
SMILES,KCNQ2 pot,KCNQ2 pot baseline
O=C(CCc1ccc(S(=O)(=O)NC2CCCCC2)cc1)Nc1ccccc1,0.46,-0.75
CC(=O)Nc1ccc(NC(=O)CSc2nnnn2-c2ccccc2F)cc1,0.93,-0.94
CC(C)N(NC(=O)c1cccc2ccccc12)C(C)C,1.5,0.36
COc1ccccc1N1CCN(C2CCCN(C(=O)C3=NN(C)C(=O)CC3)C2)CC1 (configuration not stated),0.06,0.24
Cc1[nH]c2ccccc2c1/C=N/NC(=O)CNC(=O)COc1ccccc1,0.74,0.2
CCN(CC)S(=O)(=O)c1ccc(N2CCOCC2)c(NC(=O)c2cc3ccccc3oc2=O)c1,-5.5,.
O=C(Nc1ccc(C(F)(F)F)cc1)C1CC(=O)N(c2ccc3c(c2)OCCO3)C1 (configuration not stated),0.45,-0.72
COc1c2ccoc2c(OCC=C(C)C)c2oc(=O)ccc12,0.24,0.28
O=C(Nc1ccc2nc3n(c(=O)c2c1)CCCCC3)C(=O)N1CCN(c2ccccc2F)CC1,1.3,0.09
COCCNC(=O)C(=O)Nc1cc2c3c(c1)CC(=O)N3CCC2,1.4,1.1
Cc1nnc2n1N=CC=C(c1ccccc1)S2,0.58,1.1
Oc1c(Cl)cc(Cl)cc1/C=N/NC(=S)NC1CC2C=CC1C2 (configuration not stated),7.2*,0*
CCOC(=O)N1CCC(c2cc(=O)n(-c3ccccc3)[nH]2)CC1,0.28,-0.62
COc1ccc2oc(C(=O)OCC(=O)N3CCCCC3)c(C)c2c1,0.03,-1.7
CCN(CC(=O)Nc1c(F)cccc1F)C(=O)C1CCN(C(=O)c2ccc(F)cc2)CC1,0.79,0.87
NC(=O)NOCc1ccccc1,1.1,-1
CCC(C)/C(C)=N/Nc1ccc(S(N)(=O)=O)cc1[N+](=O)[O-] (configuration not stated),0.9,1.8
Cc1cccc(NC(=O)CCNS(=O)(=O)c2ccc(Cl)cc2)c1,0.71,-1.4
CCN(Cc1ccncc1)Cc1ccc(OC)c(OC)c1,1.2,-0.06
Cc1cc(Cl)ccc1NC(=S)NC1CCCC1,1.1,-0.4
COc1ccc(CNC(=O)CSc2n[nH]c(N)n2)cc1,1.1,0.48
CN1C(=O)c2cccc3c(S(=O)(=O)N(C)C)ccc1c23,0.34,0.22
COc1ccc(NC(=O)C2CCCN(S(=O)(=O)c3ccc(Cl)cc3)C2)cc1OC (configuration not stated),0.55,0.46
O=C(CSc1nc2c(c(C(F)(F)F)n1)CCc1ccccc1-2)NCc1ccc(F)cc1,0.16,-0.63
O=C(C1CC1)N1CCN(c2ccnc3cc(Cl)ccc23)CC1,0.29,-0.02

# The closing 6 compounds of the part before are carried over, then new ones follow.
SMILES,KCNQ2 pot,KCNQ2 pot baseline
Cc1cc(Cl)ccc1NC(=S)NC1CCCC1,1.1,-0.4
COc1ccc(CNC(=O)CSc2n[nH]c(N)n2)cc1,1.1,0.48
CN1C(=O)c2cccc3c(S(=O)(=O)N(C)C)ccc1c23,0.34,0.22
COc1ccc(NC(=O)C2CCCN(S(=O)(=O)c3ccc(Cl)cc3)C2)cc1OC (configuration not stated),0.55,0.46
O=C(CSc1nc2c(c(C(F)(F)F)n1)CCc1ccccc1-2)NCc1ccc(F)cc1,0.16,-0.63
O=C(C1CC1)N1CCN(c2ccnc3cc(Cl)ccc23)CC1,0.29,-0.02
NS(=O)(=O)c1ccc(CCNC(=O)C(=O)NCC2OCCN2S(=O)(=O)c2ccc(F)cc2)cc1 (configuration not stated),0.51,0.04
O=c1[nH]c2ccc(S(=O)(=O)N3CCCCC3)cc2s1,0.25,-1.9
COc1ccc(C2Nc3ccccc3NC3=C2C(=O)CC(C)(C)C3)cc1O (configuration not stated),0.01,-0.65
C/C=C(\C)C(=O)NNC(=O)c1sc(-c2ccccc2)nc1C,0.81,-0.74
CCOc1cc(/C=N\NC(=O)c2ccc(NC(=O)CC)cc2)ccc1OC(=O)c1ccccc1,1.3,0.61
CCCCCOC(=O)CSc1nc2c(c(=O)[nH]c(=O)n2C)n1Cc1ccc(Cl)cc1,0.8,0.21
NS(=O)(=O)c1ccc(CCNCc2cc(Cl)ccc2OCc2ccccc2)cc1,1.7,-0.87
CCOC(=O)CSCC(=O)Nc1nnc(-c2cccc([N+](=O)[O-])c2)s1,1.6,-0.48
O=C(CCS(=O)(=O)Cc1ccccc1)NCCc1ccccc1,0.01,-0.62
CCOC(=O)/C(C#N)=N/Nc1ccccc1C#N,0.9,0.09
COc1ccc(CCNC(=O)CCC(=O)NC2CCCC(C)C2C)cc1OC (configuration not stated),1.1,-0.4
COc1ccc(NC(=O)CSc2nnc(-c3ccncc3)n2CC2CCCO2)c(OC)c1 (configuration not stated),0.85,1.3
COc1ccc(S(=O)(=O)NC(C)C(=O)NC2CC2)cc1C (configuration not stated),0.85,1.1
COc1ccc(OC)c(NC(=O)c2ccc(CN3CCOCC3)cc2)c1,0.17,-1.4
CCC(C)[C@H]1CNCCN1CCc1cccc2ccccc12 (some centres not stated),0.06,-0.62
c1ccc2c3nnc4n(c-3nc2c1)CCCS4,1.4,-0.18
COc1cccc2c(=O)n(CC(=O)Nc3ccccc3F)ccc12,2,-2.5
CC(C)c1nnc(NC(=O)Cc2ccc(Br)cc2)s1,0.82,1.5
CCNc1nc(NCC)nc(Oc2ccc(C(=O)OC)cc2)n1,2.7,-1.5
COc1ccc(OC)c(/C=N\NC(=O)CSc2nnc(CCCc3ccc(OC)c(C)c3)o2)c1,1.8,-1.8
CC1(C)CC(CCC(=O)NC(=S)Nc2ccccc2Cl)C(=O)O1 (configuration not stated),0.57,1.8
CN(CC(=O)Nc1ccc(F)cc1[N+](=O)[O-])Cc1ccccc1,1.2,0.88
Cc1ccc(/C=N/Nc2ccc(F)cc2)s1,0.07,-0.74
Cc1ccc(NS(=O)(=O)c2ccc(-c3ccc(=O)[nH]n3)o2)cc1N(C)C,0.46,0.74
COC(=O)Cn1c(C)c(C#N)c2ccccc21,1.8,0.09

# 5 of the entries above in order of the KCNQ2 pot baseline value, smallest number first.
SMILES	KCNQ2 pot	KCNQ2 pot baseline
COc1ccc(C2Nc3ccccc3NC3=C2C(=O)CC(C)(C)C3)cc1O (configuration not stated)	0.01	-0.65
CCOc1cc(/C=N\NC(=O)c2ccc(NC(=O)CC)cc2)ccc1OC(=O)c1ccccc1	1.3	0.61
Cc1ccc(NS(=O)(=O)c2ccc(-c3ccc(=O)[nH]n3)o2)cc1N(C)C	0.46	0.74
CN(CC(=O)Nc1ccc(F)cc1[N+](=O)[O-])Cc1ccccc1	1.2	0.88
COc1ccc(S(=O)(=O)NC(C)C(=O)NC2CC2)cc1C (configuration not stated)	0.85	1.1

# (continued)
SMILES,KCNQ2 pot,KCNQ2 pot baseline
COc1ccccc1N(CC(=O)NCc1ccccn1)S(C)(=O)=O,0.18,-0.79
CN1CCN(NC(=O)c2ccc(COc3ccccc3Br)o2)CC1,0.67,1.5
Cc1ccc(NC(=O)C2CCN(S(=O)(=O)c3cccs3)CC2)c(O)c1,1.6,0.51
Cc1nnc(SCC(=O)NC(C)c2ccccc2)[nH]c1=O (configuration not stated),0.98,-0.18
Cc1ccc2nc(NC(=O)c3ccc(NS(=O)(=O)c4cccs4)cc3)sc2c1,1.1,0.91
COc1ccc(CCNC(=O)Cc2nn(C)c(=O)c3ccccc23)cc1OC,0.56,-2.6
COc1ccccc1CC(=O)NC1CCCCCC1,1.9,0.16
COC(=O)c1c(C)c(OC(=O)c2c(C)cc(O)c(C=O)c2O)cc(C)c1O,0.6,-0.08
COc1cc(CNc2ccc(N3CCCCC3)cc2)ccc1OCC(=O)NC(C)(C)C,2.7,-0.33
CC1=C(C#N)C(=O)NC(=O)/C1=C\c1ccc(-c2cc(C)c(C)cc2[N+](=O)[O-])o1,0.34,0.6
CCCc1cc(=O)[nH]c(SCc2cccc(C)c2)n1,1.1,-1.5
Cc1cc(C)c(S(=O)(=O)Nc2ccccc2C(=O)N2CCCC2)c(C)c1,0.68,0.56
COc1ccc(N(CC(O)CN2CCOCC2)S(=O)(=O)c2ccccc2)cc1 (configuration not stated),0.73,2.7
CCOC(=O)C1=C(O)/C(=C\c2sccc2C)N=C1C,1.2,2.7
O=C1OC2(CCCCC2)OC(=O)C1=CNc1nc2ccccc2s1,0.62,-0.27
Cc1cccc(-c2nc3ccccc3c3nncn23)c1,1.3,1.5
CC(=O)c1ccc(OCc2cc(C(=O)N3CCCCCCC3)no2)cc1,0.86,2
CCCCc1c(O)c2ccccc2[nH]c1=O,0.69,-0.54
C=CCc1cc(C=O)cc(OCC)c1OCc1ccc(Cl)cc1,1.2,0.65
COc1ccc(S(=O)(=O)n2oc(=O)cc2-c2ccccc2)cc1,0.98,1.4
C/C(=C\c1ccc(Br)cc1)C(=O)c1c(C)cc(C)[nH]c1=O,0.09,-0.45
CC(=O)N1N=C(c2ccccc2)CC1c1ccc2c(c1)OCO2 (configuration not stated),1.7,1.2
COc1ccc(Nc2cc(C)nc3ncnn23)c(OC)c1,0.88,-0.23
Nc1cc(=O)nc(SCC(=O)Nc2cccc3ccccc23)n1CCc1ccccc1,1.4,-0.43
CC(C)(CO)NC12CC3CC(CC(C3)C1)C2,0.28,-0.92
SMILES,KCNQ2 pot,KCNQ2 pot baseline
C#CCNC(=O)C1=C[C@H](C2CCCCC2)C[C@H](OCCCCO)O1,1,-0.34
Cc1ccc(C(=O)OCCc2sc[n+](Cc3ccccc3)c2C)cc1,1.7,-0.64
O=C(CSc1nnc(CNC(=O)c2cccs2)o1)c1ccc(Cl)cc1,0.99,0.13
CC1(C)N([O-])C2=C(c3ccccc3C2=O)[N+](=O)C1(C)C,1.5,0.46
CCOC(=O)Cc1csc(NC(=O)NC2(C(F)(F)F)Oc3ccccc3O2)n1,0.51,0.96
CN1CC(=O)NC1=NC(=O)C12CC3CC(CC(C3)C1)C2,0.08,0.5
COc1ccc(-c2csc(NC(=O)COC(=O)Cc3ccc(Cl)cc3Cl)n2)cc1,0.82,0.03
CCOC(=O)N1CCC(N2CCN(Cc3ccc(C)o3)C(CCO)C2)CC1 (configuration not stated),0.22,0
Cc1ccnc(NC(=O)CCCOc2ccccc2)c1,0.15,1.3
Cc1ccc(S(=O)(=O)N2CCC(C(=O)NCc3ccccc3Cl)CC2)cc1,0.94,1.3
COC(=O)c1sc2nc(C)nc(SCC(=O)N3CCC(C(=O)O)CC3)c2c1C,0.54,1.4
Cn1c(SCC(=O)NCc2ccc3c(c2)OCO3)nnc1-c1cccs1,1.4,-1.9
COc1ccc(-c2nnc(C)c3nocc23)cc1,0.8,-1
CCOC(=O)C1CCN(C(=O)COC(=O)c2oc3ccccc3c2C)CC1,2.8,-1.5
CC(C)(C)NC(=O)Cn1c(SCC(=O)NC2CCCC2)nc2ccccc21,0.03,-1.6
CCOC(=O)c1[nH]c2cc3c(cc2c1NC(=O)CN1CCCCC1C)OCO3 (configuration not stated),0.72,1.4
CCCOc1nc2ccccc2cc1/C=C/C(=O)O,0.85,-1.6
Cc1cc(OCC(=O)Nc2ccccc2F)nc(C(C)C)n1,2.4,-0.4
CCN(CC)S(=O)(=O)c1ccc(C(=O)NCC(=O)N/N=C/c2ccccc2OC)cc1,2.5,-1
CC(=Nc1ccc(O)cc1)c1sc2ccccc2c1O,1.4,1.5
CC(=O)c1c(C)[nH]c(C(=O)OCC(=O)Nc2cc(S(=O)(=O)N3CCCC3)ccc2Cl)c1C,1.4,0.96
Nc1ccccc1SC1CC(=O)N(c2ccccc2Cl)C1=O (configuration not stated),0.51,-2.7
COC(=O)[C@H](CCSC)NC(=O)Nc1ccc(C(C)C)cc1,0.53,-0.22
CC(=O)Nc1ccc(NC(=O)CSc2nnc(NC(=O)C3CC3)s2)cc1,1.8,-0.82
CC(C)CCNC(=O)c1nnc(Cc2ccc(Cl)cc2)o1,0.74,-0.63
SMILES,KCNQ2 pot,KCNQ2 pot baseline
COc1ccc(CCN(C)C(=O)c2ccc(OCC(=O)N3CCOCC3)c(OC)c2)cc1OC,0.11,0.01
COc1cc2cc(C(=O)N3CCN(Cc4ccc5c(c4)OCO5)CC3)[nH]c2cc1OC,1.7,0.01
Cc1c(N=C2NN=C(c3c[nH]c4ccccc34)CS2)c(=O)n(-c2ccccc2)n1C,0.7,-0.7
Cn1c(=O)oc2cc(S(=O)(=O)N3CCOCC3)ccc21,0.99,0.3
COc1ccccc1-c1nnc2n1N=C(C(C)(C)C)CS2,1.9,1.4
O=C(O)C1CC(c2ccccc2F)=NO1 (configuration not stated),0.29,2.2
O=C(Nc1ccc2c(c1)CCC2)c1ccc(Br)o1,5.2,0.07
Cc1ccc(NC(=S)NCCSc2ccc(Cl)cc2)c(C)c1,4.3,-1.8
N#CC1=C(N)OC2=C(CN(Cc3ccccc3)C/C2=C\c2cccnc2)C1c1cccnc1 (configuration not stated),0.7,-2.4
CCOC(=O)c1cnc2ccc(Cl)cc2c1N1CCN(C)CC1,0.53,0.35
CC(=O)Nc1ccc(SCC(=O)c2ccc(Br)s2)cc1,1.1,1.7
O=C(NC(=S)Nc1cccnc1Cl)c1ccc(Cl)cc1,0.56,1.1
Cn1c(COc2ccc(Cl)cc2)nnc1SCc1ncc(-c2ccccc2)o1,0.75,-1.9
CCCCOc1ccc(C(C)(O)CCN2CCOCC2)cc1 (configuration not stated),0.39,-0.45
CCC(C)[C@H]1CN=C(N)N1CCc1cc(C(F)(F)F)cc(C(F)(F)F)c1 (some centres not stated),0.95,-1.9
Cc1cc(-c2ccccc2)nc(N/N=C/c2ccc(N(C)C)cc2)n1,1.7,-2.5
CN(C)C(=S)SCC(=O)Nc1ccc(Cl)cc1Cl,1.6,1.3
CN(CC(=O)Nc1ccc(F)cc1)C(=O)c1cccc(S(=O)(=O)N2CCN(c3ccccc3)CC2)c1,0.75,-1
O=C(CC(C(=O)O)c1c[nH]c2ccccc12)c1ccccc1 (configuration not stated),1.2,0.15
CCc1ccc2c(c1)cc(CN(Cc1ccco1)C(C)=O)c1nnnn12,0.33,-1.9
COc1ccc(CNc2ncnc3cc(OC)c(OC)cc23)cc1,0.07,0
Cc1cc(=O)cc(C)n1-c1ccc2c(c1)nc(C)n2-c1ccccc1,1.3,0.63
COc1ccc(Cn2ccnc2)cc1Br,0.08,1.6

# From PubChem
